# Screens deposited in PubChem BioAssay by several laboratories.
# YopH PTP inh: YopH (Yersinia) phosphatase inhibition; AID 898; fluorescence Ex485/Em525; inhibition, %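 (about 10 µM by stock and volumes)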; hit rate 0.16% among 140,000;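 active = inhibition of 50% or more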;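 also: controls were vehicle for no effect and minimum signal wells for full effect; inactives centre near -20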
# Mtb betalactam: beta-lactam sensitization of Mtb H37Rv; inhibition, % at 25 µM; hit rate 0.27% among 330,000; M. tuberculosis H37Rv growth with meropenem, percent inhibition; hits of this screen are not shown here;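 active = about 74% or more and at least 40 points above the plate without the antibiotic, then above 30% in a dose series; inconclusive = first-round hits that could not be retested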;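 also: growth measured after seven days incubation then overnight dye step; 0% = bacteria only wells and 100% = bacteria with antibiotic; twin plates without the antibiotic show which effects depend on it; some results filed as inactive read as strong as hits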
# Arbovirus anti: arbovirus infection inhibition. arbovirus infection cell-based antiviral screen. hit rate 0.37% among 200,000. inhibition, % at 10 µM;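 active = inhibition from about 30%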;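 also: bluetongue infection of BSR cells; cell survival read as ATP light after 72 h; 0% = infected wells without compound and 100% = uninfected wells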
# Mtb growth: M. tuberculosis H37Rv growth inhibitors, H37Rv strain (AID 1626); one-dose inhibition, % at 10 µM; IC50 in µM for titrated hits; hit rate 0.95% among 220,000; M. tuberculosis H37Rv growth inhibition; higher % means a stronger effect;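 active = confirmed in a dose series; inconclusive = inhibition above 80% but not taken into the dose series; inactive = below 80% or under 30% at every dose of the series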;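 also: bacteria incubated seven days before Alamar blue readout; 0% = bacteria only wells and 100% = bacteria with antibiotic wells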
# RecA intein inh: Mtb RecA intein splicing inhibition | P9WHJ3 | cell-free RecA intein splicing, fluorescence | inhibition, %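 (about 9 µM by stock and volumes)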 | hit rate 0.75% among 290,000 | AID 2221; in the data active = inhibition above about 30%; inconclusive = no clear call, values can overlap the other calls;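 also: 0% = vehicle wells and 100% = reference inhibitor control wells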
# Target sequence (P9WHJ3 whole entry, looked up): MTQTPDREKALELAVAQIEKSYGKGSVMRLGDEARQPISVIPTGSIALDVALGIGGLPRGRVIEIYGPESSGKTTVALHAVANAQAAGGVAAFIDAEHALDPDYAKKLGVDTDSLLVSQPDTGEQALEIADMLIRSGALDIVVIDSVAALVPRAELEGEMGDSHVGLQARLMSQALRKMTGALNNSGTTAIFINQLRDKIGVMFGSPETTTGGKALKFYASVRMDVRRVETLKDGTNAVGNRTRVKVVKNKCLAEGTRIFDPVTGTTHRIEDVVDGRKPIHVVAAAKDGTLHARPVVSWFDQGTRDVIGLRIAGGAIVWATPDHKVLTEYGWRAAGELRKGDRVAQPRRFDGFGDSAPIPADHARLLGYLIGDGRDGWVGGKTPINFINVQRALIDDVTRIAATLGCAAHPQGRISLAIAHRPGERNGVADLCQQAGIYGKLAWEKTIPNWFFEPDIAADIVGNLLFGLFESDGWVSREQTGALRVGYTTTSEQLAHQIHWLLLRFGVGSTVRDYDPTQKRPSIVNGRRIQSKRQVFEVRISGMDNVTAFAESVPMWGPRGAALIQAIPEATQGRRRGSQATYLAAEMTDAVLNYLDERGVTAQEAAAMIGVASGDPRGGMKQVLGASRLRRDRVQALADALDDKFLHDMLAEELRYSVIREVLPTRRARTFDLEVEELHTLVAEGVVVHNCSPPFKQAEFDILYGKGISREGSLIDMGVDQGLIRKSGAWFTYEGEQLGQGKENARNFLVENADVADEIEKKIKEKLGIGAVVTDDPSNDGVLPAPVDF
# Arbovirus anti repeat: recorded beside Arbovirus anti, whose call it bears; inhibition, %; measured here: 10K subset replicate screen; many hits read low in the repeat;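 first of two repeat runs on a subset; 0% = infected and 100% = uninfected wells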
# Numbers without * were called inactive; ? = inconclusive; · = no result given. These rows are one share of the data; rates above refer to the full screens.
SMILES,YopH PTP inh,Mtb betalactam,Arbovirus anti,Mtb growth,RecA intein inh,others
COC(=O)[C@@]1(C)CC[C@]2(C)CC[C@@]3(C)C(=CC(=O)C4[C@@]5(C)CC[C@H](O)C(C)(C)[C@@H]5CC[C@]43C)[C@H]2C1 (some centres undefined),·,-6,·,-1%,2.2,
CCN(CC)C(=O)Cn1cc(S(=O)(=O)CC(=O)NCc2ccccc2)c2ccccc21,·,2,·,·,0.8,
CCCS(=O)(=O)c1nc(S(=O)(=O)c2ccc(C)cc2)c(NCCCN2CCCC2=O)s1,·,1,·,·,0.3,
Cc1cccc(C)c1Nc1nnc(SCC(=O)NC2CCS(=O)(=O)C2)s1 (centres undefined),-28,4,6,-5%,-0.3,
Cc1ccsc1C1C2=C(CC(C)(C)CC2=O)Nc2ncnn21 (centres undefined),-41,-1,6,0%,1.5,Arbovirus anti repeat=4
CC(C)CC1NC(=O)N(CC(=O)Nc2ccc3c(c2)CCC3)C1=O (centres undefined),·,4,17,6%,0.6,
NC(=O)CC(NC(=O)c1ccccc1)c1ccc(NCc2ccccc2)c([N+](=O)[O-])c1 (centres undefined),·,-7,·,-6%,2.3,
O=C(CNC(=O)c1cccnc1)N=Nc1c(O)[nH]c2c(Br)cc(Br)cc12,·,-1,·,·,8.0,
Cc1ccc(-c2nnc(N3CC(C)OC(C)C3)c3ccccc23)cc1 (centres undefined),·,-1,15,5%,1.5,
O=C(CCS(=O)(=O)c1ccc(Br)s1)NC1CCCC1,-23,-13,2,-10%,-0.6,
Cc1cc(C(=O)N(C2CCCCC2)C2CCCCC2)no1,-10,-5,-4,-5%,·,
Cc1nc(C(=O)NC2CCCCC2)sc1C1(C)CC(c2cccc([N+](=O)[O-])c2)=NO1 (centres undefined),·,-2,·,-6%,0.6,
O=C(NCc1ccco1)C1CCC(N2C(=O)C3C4CCC(C4)C3C2=O)CC1 (centres undefined),·,-5,-5,-10%,0.4,
CCCCn1c(-c2ccccc2)cnc1SCC(=O)NCCc1ccc(OC)c(OC)c1,-15,5,-4,8%,4.3,
CCOc1ccc(S(=O)(=O)Nc2ccc(S(=O)(=O)N3CCCC3)cc2)cc1,6,12,9,1%,3.3,
Cc1sc(/N=C/c2ccccc2O)c(C#N)c1C,5,3,-10,·,-3.0,
CCN1C(=C(C#N)C#N)C=Cc2ccccc21,·,-1,-1,4%,·,
CCc1ccc(CCC(=O)Nc2ccc(Cl)cc2)o1,·,10,·,·,1.8,
CCc1nc(N(CC)CC)c2oc3ccccc3c2n1,6,5,-5,16%,3.9,Arbovirus anti repeat=-8
COC(CN(C(=O)CCl)C(C(=O)NC1CCCCC1)c1ccc(C)cc1)OC (centres undefined),-21,-4,11,1%,32*,
Cc1nc2ccc(NC(=O)Cc3c(F)cccc3Cl)cc2s1,·,-7,·,-4%,-0.7,
O=C(CSc1ccc2nnc(-c3ccc(F)cc3)n2n1)NCC1CCCO1 (centres undefined),-46,-3,4,-4%,-2.8,
COc1ccc(Nc2nc(N)nc(CSc3nccn3C)n2)cc1,·,2,-3,-4%,-0.4,
CCOC(=O)c1ccc(NC(=S)NN)cc1,·,99,2,?,-1.3,
O=C(Nc1ccc(Cl)cc1)Nc1ccccc1CC[N+](=O)[O-],·,0,24,-1%,8.9,
O=C(Nc1ccccc1)C1=C[C@@H](C2CCCCC2)C[C@@H](OCc2ccc(CO)cc2)O1,·,98,-16,10%,6.2,
COc1cccc(-c2nc(COc3ccc(Cl)cc3Cl)no2)c1,·,-1,·,-1%,0.7,
Cn1nnnc1SCCNCc1ccc(Cl)cc1,-5,-14,8,-2%,·,
CC(C)OC(=O)c1cccc(C(=O)O)n1,-37,18,5,-1%,0.7,
Cc1coc2c1c(C)cc1oc(=O)c(CC(=O)N[C@@H](C)C(=O)O)c(C)c12,·,-5,·,·,-3.5,
CN(C)CCC#CC1(O)c2ccccc2-c2ccccc21,·,-1,·,·,1.6,
COc1ccc(-n2c(SCC(N)=O)nnc2-c2ccc(NS(=O)(=O)c3ccc(C)cc3)cc2)cc1,-16,-6,-2,-1%,2.4,
CC(C)N(C)C1CCN(S(=O)(=O)c2ccc(-c3ccc(=O)[nH]n3)s2)CC1,·,4,·,·,1.1,
CCCc1nnc(NC(=O)CCN2C(=O)c3ccccc3C2=O)s1,18,1,10,-7%,1.4,
CCOc1cc(/C=C2\SC(=Nc3ccc(CC)cc3)NC2=O)ccc1OCC(=O)O,·,1,·,·,4.9,
Cc1cc(NC(=O)c2ccc3c(c2)OCO3)no1,-23,-3,0,-10%,0.2,
COc1cc2c(-c3ccccc3O)nc3c(c(C)nn3-c3ccccc3)c2cc1OC,-16,3,-8,1%,-1.5,
CCC1(C)Cc2c(sc(NC(=S)NC(=O)c3ccccc3)c2C#N)CO1 (centres undefined),-15,16,12,6%,·,
CC1(C)CC2c3cccc(C(=O)O)c3C(=O)N2c2c1ccc1ccccc21 (centres undefined),-6,-3,4,8%,-1.9,
COCCn1c(SCC(=O)Nc2ccc3c(c2)OCCO3)nnc1C(C)C,·,0,·,·,-0.6,
CN(C)CCN(Cc1ccccc1)S(=O)(=O)c1ccc2c(c1)n(C)c(=O)c(=O)n2C,·,2,·,-2%,-0.8,
O=C(NCc1ccc(OC(F)(F)F)cc1)C1CC2Cn3c(nc4ccccc43)C2N1Cc1ccccc1 (centres undefined),·,-2,·,·,1.1,
COc1cc2oc3cc(C#Cc4ccc(N)cc4)ccc3c(=O)c2cc1OC,·,21,·,2%,-23,
Cc1ccc(N2CC(NS(=O)(=O)c3cccs3)CC2=O)cc1C (centres undefined),·,-4,·,·,-0.3,
CC12CC(NC(=O)N1c1cccc(C(=O)N3CCN(c4ccccc4F)CC3)c1)c1ccccc1O2 (centres undefined),-14,4,-8,-5%,5.4,

# Sorted by formula weight (lowest first): some entries from above.
SMILES,YopH PTP inh,Mtb betalactam,Arbovirus anti,Mtb growth,RecA intein inh,others
CC(C)OC(=O)c1cccc(C(=O)O)n1,-37,18,5,-1%,0.7,
CN(C)CCC#CC1(O)c2ccccc2-c2ccccc21,·,-1,·,·,1.6,
Cn1nnnc1SCCNCc1ccc(Cl)cc1,-5,-14,8,-2%,·,
CCCc1nnc(NC(=O)CCN2C(=O)c3ccccc3C2=O)s1,18,1,10,-7%,1.4,
Cc1ccc(N2CC(NS(=O)(=O)c3cccs3)CC2=O)cc1C (centres undefined),·,-4,·,·,-0.3,
COc1cccc(-c2nc(COc3ccc(Cl)cc3Cl)no2)c1,·,-1,·,-1%,0.7,
Cc1coc2c1c(C)cc1oc(=O)c(CC(=O)N[C@@H](C)C(=O)O)c(C)c12,·,-5,·,·,-3.5,
COc1cc2oc3cc(C#Cc4ccc(N)cc4)ccc3c(=O)c2cc1OC,·,21,·,2%,-23,
CCC1(C)Cc2c(sc(NC(=S)NC(=O)c3ccccc3)c2C#N)CO1 (centres undefined),-15,16,12,6%,·,
COCCn1c(SCC(=O)Nc2ccc3c(c2)OCCO3)nnc1C(C)C,·,0,·,·,-0.6,
CC(C)N(C)C1CCN(S(=O)(=O)c2ccc(-c3ccc(=O)[nH]n3)s2)CC1,·,4,·,·,1.1,
CCOc1cc(/C=C2\SC(=Nc3ccc(CC)cc3)NC2=O)ccc1OCC(=O)O,·,1,·,·,4.9,
CN(C)CCN(Cc1ccccc1)S(=O)(=O)c1ccc2c(c1)n(C)c(=O)c(=O)n2C,·,2,·,-2%,-0.8,
CC12CC(NC(=O)N1c1cccc(C(=O)N3CCN(c4ccccc4F)CC3)c1)c1ccccc1O2 (centres undefined),-14,4,-8,-5%,5.4,
O=C(NCc1ccc(OC(F)(F)F)cc1)C1CC2Cn3c(nc4ccccc43)C2N1Cc1ccccc1 (centres undefined),·,-2,·,·,1.1,
COc1ccc(-n2c(SCC(N)=O)nnc2-c2ccc(NS(=O)(=O)c3ccc(C)cc3)cc2)cc1,-16,-6,-2,-1%,2.4,

# Additional structures.
SMILES,YopH PTP inh,Mtb betalactam,Arbovirus anti,Mtb growth,RecA intein inh,others
Cc1ccc(CN2CCC(c3cc(-c4ccc(Cl)cc4)n[nH]3)CC2)cc1,·,99,·,·,-0.8,
CCC(CC)NC(=O)Cc1ccc(S(=O)(=O)N2CCOCC2)s1,-5,-4,0,-1%,4.1,
COc1cc(C(=O)NCCN=C2NS(=O)(=O)c3ccccc32)cc(OC)c1OC,·,-9,·,·,1.4,
COc1ccc(N=c2scc(C)n2CCCN2CCCC2=O)cc1,·,-1,5,10%,-1.6,
Cn1cc(S(=O)(=O)N2CCOCC2)cc1C(=O)Nc1ccc(Cl)cc1,·,3,·,·,-0.7,
Cc1cccc(NC(=S)NNC(=O)c2ccc3c(c2)OCO3)c1,-25,8,-1,4%,-1.0,
Cc1ccccc1N1C(=O)CC(=O)N(c2ccccc2C)C1=O,-50,0,0,0%,-1.9,
CC(=O)n1cc(C=C2C(=O)NC(=O)NC2=O)c2ccccc21,·,7,·,·,0.8,
O=C1CCN(Cc2ccc(Br)cc2)CCN1CCO,·,-7,·,·,5.8,
CC(=O)N1CCc2cc(S(=O)(=O)NC(Cc3ccccc3)C(=O)O)ccc21 (centres undefined),·,6,·,·,-2.4,
O=C(NC(=S)N1CCN(c2nc(-c3ccccc3)cs2)CC1)c1cccnc1,-27,96,3,?,4.5,
CC(NS(=O)(=O)c1ccccc1)C(N)=O (centres undefined),6,-14,1,-3%,15,
CN(CC(=O)Nc1ccc(F)cc1)C(=O)COC(=O)C1=COCCO1,·,-5,·,·,0.5,
COc1ccc(CC(NC(C)=O)C(=O)NC2CCN(C(=O)Nc3ccccc3Cl)CC2)cc1OC (centres undefined),-13,-11,-1,0%,-0.5,
O=C(Nc1cccc(Cl)c1)OC1CCCCc2cccnc21 (centres undefined),·,-5,·,-1%,9.0,
CCOc1cc(C(=O)N/N=C/c2ccoc2)cc(OCC)c1OCC,·,-4,·,·,-1.1,
NC(=O)c1ccccc1NS(=O)(=O)c1ccc2c(c1)OCCO2,-22,6,-4,-3%,-0.8,
CCOc1ccc(-n2c(CCc3ccccc3)n[nH]c2=S)cc1,·,4,2,-2%,1.2,
CC(C)CC(=O)c1c[nH]c(C(=O)N2CCN(Cc3ccccc3)CC2)c1,·,-9,-3,1%,2.7,
CC(=O)Nc1ccc(C2=NNC(=Nc3cccc(S(=O)(=O)N(C)C)c3)SC2)cc1,·,11,-17,0%,·,
CC1CN(C(=O)CCS(=O)(=O)c2ccccc2)CC(C)O1 (centres undefined),·,-1,·,·,-6.1,
CC(C)C[C@@H](CSc1ccccc1)N1CCN(CC(C)C)CCC1=O,·,-1,·,·,1.4,
Cc1cccc(-n2c(O)c(C=Nc3ccc(O)cc3)c3ccccc3c2=O)n1,-33,6,-14,-1%,-17,
Cc1cc(C)nc(NC(=O)C2c3ccccc3Oc3ccccc32)n1,·,0,-3,-5%,1.0,
C=CCN(C(=O)CN1CCOCC1)c1nc(C)c(-c2ccccc2)s1,1,77,-3,5%,-0.4,Arbovirus anti repeat=1
COc1ccc(C2=NN(c3ccccc3)C(c3cccs3)C2)cc1 (centres undefined),·,-1,-5,-14%,-4.3,
O=C(CN1C(=O)c2ccccc2S1(=O)=O)NCc1ccccn1,-36,1,17,-10%,-1.3,
NC(=O)C1(c2ccccc2)CCOCC1,34,-8,3,-6%,4.7,
COc1nc(NC(C)C)nc(N(C#N)CN2C(=O)c3ccccc3S2(=O)=O)n1,·,4,·,-3%,61*,
COc1ccc(OC)c(CNS(=O)(=O)c2cn(C)cn2)c1,·,-1,·,·,-11,
Cc1ccc(OCCNC(=O)c2ccc3c(c2)OCO3)cc1,·,8,·,·,1.0,
CCn1c(O)c(N=NC(=O)c2cccnc2)c2cc(Br)ccc21,·,54,·,8%,-1.3,
